Source: PubChem BioAssay (several laboratories)
A1 inh = caspase 3/7 activation in MEF A1-2A-BIM cells, primary screen, A1 inhibitor project, cell-based, luminescence, HTS | Caspase-Glo 3/7 luminescence, 3 h; percent of clofoctol response, vehicle zero | caspase activation, % (test concentration not listed) | hit rate 0.066% among 330,000 | AID 2462, 2010;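 active = over half of replicate activation scores above 10%, or exactly half above 10 with the replicate mean above 10; inconclusive = replicate mean below 10 yet half the replicates above 10; inactive = over half of replicates below 10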;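 note: wells of about 30 µL received 50 nL stock; many hits fall short of the cut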
MLL AF4-AF9 inh = inhibitors of AF4 peptide binding to AF9, primary screen, biochemical, AlphaScreen, biotin-AF4 peptide, FLAG-AF9, single point. Protein AF-9 (Homo sapiens), P42568. hit rate 0.47% among 350,000. inhibition, % at 10 µM. AID 651704, 2012;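 active = every replicate reaching a set inhibition limit, whatever the replicate mean, cut at about 25% in these data; inconclusive = mean inhibition reaches that limit but some replicates miss it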;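 note: 0% = plate neutral control median and 100% = total signal loss; the record names both 10 and 1 µM as test concentration; the first replicate is given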
Target sequence (P42568 whole entry, looked up): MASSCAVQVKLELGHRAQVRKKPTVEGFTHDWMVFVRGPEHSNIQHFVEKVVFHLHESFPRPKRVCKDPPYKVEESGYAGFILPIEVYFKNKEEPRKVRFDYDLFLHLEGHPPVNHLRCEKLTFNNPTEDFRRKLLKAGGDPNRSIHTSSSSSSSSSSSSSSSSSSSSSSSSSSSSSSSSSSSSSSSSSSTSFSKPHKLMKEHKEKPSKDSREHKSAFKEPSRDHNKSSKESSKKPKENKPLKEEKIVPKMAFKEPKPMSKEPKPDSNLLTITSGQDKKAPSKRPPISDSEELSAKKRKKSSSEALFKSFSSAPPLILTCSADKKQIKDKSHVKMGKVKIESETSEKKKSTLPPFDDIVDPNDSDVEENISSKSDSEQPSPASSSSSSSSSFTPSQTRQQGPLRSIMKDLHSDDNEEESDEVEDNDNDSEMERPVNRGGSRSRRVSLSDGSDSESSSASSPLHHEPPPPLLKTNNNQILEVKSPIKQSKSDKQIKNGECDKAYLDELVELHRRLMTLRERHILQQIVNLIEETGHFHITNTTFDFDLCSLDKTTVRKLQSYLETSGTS
Vif TR-FRET = inhibitors of Vif binding to APOBEC3G peptide, primary screen, biochemical, TR-FRET, GST-Vif 1-94, biotin-A3G peptide, dose response retest (AID 1117319). Virion infectivity factor (Human immunodeficiency virus type 1 group M subtype B (isolate …. TR-FRET GST-Vif / biotin-A3G peptide binding; higher % means a stronger effect; test concentration not given here; strong numbers were not always called active. inhibition, %, or IC50 in µM where a hit was titrated. hit rate 0.57% among 260,000;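 active = above the screen mean plus three standard deviations and confirmed in dose response; inconclusive = results disagree or hit not tested in dose response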;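 note: Vif residues 1-94 fused to GST binding biotinylated APOBEC3G peptide 110-148; 0% = full assay without inhibitor and 100% = GST in place of GST-Vif; retest series ran down from 100 µM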
T cruzi inh = inhibitors of intracellular T. cruzi growth, primary screen, luminescence, NIH3T3 host cells. AID 1885, 2009. inhibition, % (concentration not given with the values). hit rate 1.4% among 300,000. T. cruzi beta-gal in NIH3T3, 90 h;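 active = mean inhibition across valid replicates above about 55%, limit read from the data; inconclusive = mean below that limit but half or more replicates reach it; inactive = mean below it, under half of replicates reach it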;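 note: signal also drops with host cell toxicity which is not excluded here; 0% = plate median of DMSO wells and 100% = zero luminescence signal; higher percent means less beta-gal luminescence so fewer parasites; stock transfer was 50 nL into about 50 µL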
Ecoli rRNA inh = reduced GFP signal of wild-type E. coli, primary screen, bacterial rRNA inhibitor project, GFP/RFP fluorescence, OD600, single point. E. coli WT GFP vs humanized-ribosome RFP mutants, 24 h; hits give low values; DMSO median 0, no signal -100. GFP signal change (wild-type ribosome), % (concentration not given with the values). hit rate 1.6% among 350,000. AID 720706, 2013;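 active = significant combined selectivity score with lowered wild-type GFP, culture density cut under 30%, mutant RFP and density less affected; inactive = any of these conditions unmet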; note: one replicate is shown; some compounds called inactive have numbers as strong as hits
RanGTP-Imp inh = inhibitors of RanGTP-importin-beta interaction, primary screen, biochemical, FRET, CFP-Ran, YFP-importin-beta, homogeneous; hit rate 1.1% among 300,000; inhibition, % (test concentration not listed); AID 2216, 2009; cell-free CFP-Ran/YFP-importin-beta FRET ratio; Ran GTPase (GTP-bound) - importin-beta complex;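 active = most replicates above 15%; inconclusive = exactly half above 15%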;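 note: 0% = DMSO wells and 100% = Ran loaded with GDP instead of GTP; wells of about 40 µL received 100 nL stock; the first replicate is given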
Beta cell apopt = inhibitors of cytokine-induced beta cell apoptosis, primary screen, luminescence | hit rate 0.8% among 300,000 | AID 435005, 2010 | INS-1E cytokine-induced death, ATP luminescence, 48 h; percent of positive-control rescue, neutral wells zero | protection from apoptosis, % (no concentration beside the values);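 active = all replicates at 75% or more, or half of them and the mean; inconclusive = half reach 75% but not the mean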;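 note: 0% = cytokine-treated negative control wells and 100% = positive control rescue; higher means more ATP so stronger rescue from cytokine killing; wells of about 40 µL received 100 nL stock; the first replicate is given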
Calb FLC = C. albicans growth inhibition with fluconazole, primary screen, CaCi-2 strain, Alamar Blue fluorescence | hit rate 0.57% among 300,000 | C. albicans CaCi-2 (fluconazole-resistant clinical isolate) + fluconazole, 48 h | growth inhibition, % (no concentration beside the values);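 active = most replicates above 75%; inconclusive = exactly half above 75%; inactive = most below 75%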;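 note: all wells also contain fluconazole at 8 µg/ml as a sub-toxic cotreatment; 0% = median of DMSO wells and 100% = median of geldanamycin control wells; wells of about 8 µL received 7.5 nL stock; the first replicate is given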
Ecoli rRNA inh OD600 = also measured in Ecoli rRNA inh; calls as there; OD600 change, %; measured here: OD600 growth;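 optical density of the mix in the first replicate; 0 = DMSO median and -100 = no signal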
Ecoli rRNA inh RFP = also measured in Ecoli rRNA inh; calls as there; RFP signal change, %; measured here: RFP humanized mutant strains;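 first replicate; 0 = DMSO median and -100 = no signal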
Numbers without * were called inactive; ? = inconclusive; / = not tested or not shown.

SMILES	A1 inh	MLL AF4-AF9 inh	Vif TR-FRET	T cruzi inh	Ecoli rRNA inh	Ecoli rRNA inh OD600	Ecoli rRNA inh RFP	RanGTP-Imp inh	Beta cell apopt	Calb FLC
COCCNc1ncnc2nc[nH]c12	-0.5	/	-3.1%	-9.1	/	/	/	-0.7	-3.9	1.6
NS(=O)(=O)c1cccc(NC(=O)/C=C/c2cccs2)c1	-0.8	-1.9	3.1%	-2.4	-12.7	3.7	-4.5	2.0	-0.3	-4.1
Cc1ccc(CN2CCNC(=O)C2CC(=O)O)cc1 (centres undefined)	-0.6	3.9	-5.7%	-9.9	13.8	12.4	2.8	1.6	0.1	-0.2
O=C(CCCN1C(=O)c2cccc3cccc(c23)C1=O)NCc1cccs1	0.5	5.2	-4.7%	4.2	19.4	18.5	0.1	1.6	/	-2.8
CC(=O)N(C)c1ccc(NC(=O)Nc2cccc3ccccc23)cc1	-0.1	-1.1	2.6%	-9.6	3.5	-0.3	-4.5	5.0	4.0	4.8
Cc1cccc(NS(=O)(=O)c2coc(C(N)=O)c2)c1C	0.0	-2.6	/	-16.1	3.0	6.9	-3.0	-0.6	-1.6	1.9
CC(=O)c1ccc(OCCCOc2cccc3cccnc23)cc1	1.0	0.3	/	-11.3	-24.7	-34.0	-6.7	0.5	-3.4	31.4
CC(C)OC(=O)c1cccc(C(=O)Oc2ccccc2)n1	0.6	/	-7.1%	-15.4	/	/	/	-3.7	-2.9	-0.4
CCc1cc2c(=O)n(Cc3ccco3)c(SCc3c(C)noc3C)nc2s1	-0.2	/	29.6%	25.6	/	/	/	-1.0	5.1	36.4
NC(=O)C1(N2CCCCC2)CCN(CC(=O)Nc2ccccc2-c2ccccc2)CC1	-0.3	-7.4	5.6%	2.6	6.1	-2.2	-1.0	5.8	-3.7	-15.0
NC(=O)C1CCN(C2=C(NS(=O)(=O)c3ccccc3)C(=O)c3ccccc3C2=O)CC1	0.3	12.8	/	-3.6	1.3	-3.3	-1.5	-6.5	5.7	30.5
COc1ccc(CC(=O)N/N=C/c2cccs2)cc1OC	-1.1	0.8	-1.9%	-0.4	2.2	7.1	0.6	1.1	-6.3	-1.4
CSCCC(NC(=O)COc1ccccc1)C(=O)OCc1ccc([N+](=O)[O-])cc1 (centres undefined)	0.3	-34.0	0.4%	-29.7	-4.7	-10.2	-4.2	3.2	-3.6	3.2
COc1ccc(Br)cc1CN1CCSCC1	0.4	-2.0	/	-5.4	12.8	7.6	6.6	-1.1	-2.2	7.8
CC(C(=O)N(C)CC(=O)Nc1ccccc1C(F)(F)F)N1C(=O)c2ccccc2C1=O (centres undefined)	-0.1	2.2	-6.1%	/	2.9	17.1	-1.4	/	-5.5	/
Cc1ccc([C@H]2C(C(=O)O)=C[C@@H](C(C)(C)C)N2S(=O)(=O)c2ccc(C)cc2)cc1	-0.6	-1.6	-3.5%	/	-10.3	-7.6	-0.1	/	4.4	/
CN(C)S(=O)(=O)c1cccc(NC(=S)N(CCC#N)Cc2cccnc2)c1	1.0	-0.4	10.9%	-6.8	10.3	-5.6	-1.5	5.2	-11.9	-4.2
O=C(OCc1ccccc1)C1=NNC2C(=O)N(c3ccc(Br)cc3)C(=O)C12 (centres undefined)	0.5	-0.9	-13.6%	-24.0	8.7	11.8	-1.5	3.9	-3.3	8.6
COC(=O)C1=C(C)N=C2SC(C#N)=C(N)N2C1c1ccc(OC)cc1 (centres undefined)	-0.2	/	-4.9%	-7.1	/	/	/	21.1*	4.5	-7.2
COc1c(O)ccc2c1CN1CCc3cc4c(cc3C1C2)OCO4 (centres undefined)	0.2	1.3	/	24.0	/	/	/	12.6	-2.1	31.6
Cc1nc(NCc2cccnc2)c2c3c(sc2n1)CC(C)CC3 (centres undefined)	-1.0	-1.5	4.3%	16.8	0.9	-5.7	-0.1	-2.2	1.2	-29.5
CSc1nc(C)cc(SC(C(C)=O)C(=O)Nc2ccccc2)n1 (centres undefined)	-0.7	/	-3.5%	-5.9	/	/	/	-3.6	-7.6	-12.6
CCC1(c2ccccc2)NC(=S)N(c2ccc(C)cc2)N1 (centres undefined)	-0.4	-3.9	-6.1%	-9.1	1.5	-0.1	-3.9	0.0	-1.5	106.3*
COc1ccc(OCC(=O)Nc2cccc(OC)c2)cc1	-3.6	/	1.9%	-15.6	/	/	/	0.8	-1.5	-17.6
CC(C)CC(=O)Nc1ccc(-c2nnn(CC(=O)NCc3ccco3)n2)cc1	0.2	-0.9	-1.5%	-29.0	10.1	7.7	-0.2	?	-2.4	-4.9
Following part:
SMILES	A1 inh	MLL AF4-AF9 inh	Vif TR-FRET	T cruzi inh	Ecoli rRNA inh	Ecoli rRNA inh OD600	Ecoli rRNA inh RFP	RanGTP-Imp inh	Beta cell apopt	Calb FLC
CCN(CC)CCCSc1nc2ccccc2s1	-0.5	1.9	-6.8%	69.6*	12.9	3.9	-0.1	-0.8	/	-2.7
Cc1cc(C)n2nc(C(=O)Nc3ccc4c(c3)CCC4)nc2n1	-0.2	-3.1	2.3%	-2.3	6.4	8.7	1.5	-1.1	4.6	-7.6
Cc1cc(NCCCOC(C)C)n2c(nc3ccccc32)c1C#N	-0.4	-2.1	/	29.6	-1.0	-3.1	2.1	26.0*	7.0	5.0
COc1cc(C2NC(=O)NC(C)=C2C(=O)OC2CCCC(C)C2)ccc1O (centres undefined)	0.3	/	0.7%	-0.5	/	/	/	?	-0.7	10.5
COc1cccc(CCC(=O)N2CCC(n3nccc3NC(=O)CC(C)C)CC2)c1	0.0	-1.4	/	4.7	0.4	13.4	-1.7	0.0	-0.8	13.9
COc1ccc(N2C3=C(CC4=C2CCCC4=O)C(=O)CCC3)cc1	-0.3	/	26.3µM*	9.8	/	/	/	-2.1	-11.6	15.4
O=c1cc(CN2CCOCC2)c2c(ccc3ccccc32)o1	-0.1	-15.5	4.3%	-11.9	/	/	/	/	4.6	9.4
COc1ccc(CC(=O)n2[nH]c(=O)c3ccccc3c2=O)cc1OC	0.4	/	/	-4.2	10.1	4.8	0.5	-3.7	0.1	4.2
CC1Cc2ccccc2N1C(=O)C1CCN(S(=O)(=O)c2cccs2)CC1 (centres undefined)	0.1	/	?	2.7	/	/	/	-3.9	/	-10.6
CCc1nnc(NS(=O)(=O)c2ccc(NC(=O)c3ccc(S(=O)(=O)N(CC)CC)cc3)cc2)s1	0.8	-0.4	2.2%	0.7	7.7	-4.9	4.3	-1.8	-3.7	-8.9
CC1CN(S(=O)(=O)c2cc(C(=O)N3CCCCC3C)ccc2Cl)CC(C)O1 (centres undefined)	1.1	-1.4	/	/	-5.1	-14.0	-5.1	/	6.8	/
CCn1nc(C)c(NC(=O)CCCSc2nc(-c3ccco3)cc(C(F)(F)F)n2)c1C	-1.5	/	9.6%	5.8	/	/	/	-1.1	7.8	-4.5
CCN(CC(=O)NCc1cccs1)c1ccc(S(=O)(=O)N2CCCC2)cn1	0.4	1.4	-4.4%	-1.6	6.8	3.8	-0.8	-1.3	-2.0	3.2
Cc1ccc2c(c1)NC(C(C)(C)C)CO2 (centres undefined)	1.4	/	-4.6%	-8.9	/	/	/	9.3	-1.9	11.3
COc1cccc(-c2nc(CS(=O)(=O)CC(=O)Nc3cc(OC)ccc3OC)c(C)o2)c1	0.9	1.9	/	-5.6	6.3	1.0	-0.9	-1.0	-1.6	1.5
C=CCn1c(SCC(=O)c2c(N)n(CCC)c(=O)n(C)c2=O)nnc1-c1ccncc1	1.9	-0.9	-12.8%	1.6	8.5	16.8	7.3	-3.5	-7.0	-3.4
CN(C(=O)c1ccc(F)cc1)c1ccc(OCC(=O)Nc2ccccc2C(=O)O)cc1	?	-1.3	6.0%	/	-13.8*	-18.3*	-3.7*	/	-2.9	/
N#Cc1c(-c2ccccc2)ccn(Cc2ccc(Cl)cc2)c1=O	-0.5	/	-8.5%	13.2	/	/	/	-0.4	3.3	-5.9
CCCCN(C)CCCNC(=O)c1cc(=O)[nH]c2ccc(S(=O)(=O)N3CCCCC3C)cc12 (centres undefined)	0.6	5.0	6.7%	-7.9	4.8	-6.8	-10.3	-1.7	-1.5	4.1
COc1ccc(NC(=O)c2cc3cc(OC)ccc3oc2=O)cc1	-1.9	-24.0	/	-2.1	4.9	-0.7	-5.3	-0.2	-3.8	0.5
CCOc1ccc(OCCN2C(=O)NC(Cc3c[nH]c4ccccc34)C2=O)cc1 (centres undefined)	-0.2	/	-5.3%	-15.1	/	/	/	-2.4	0.0	-0.9
O=C(CN(Cc1ccccc1)S(=O)(=O)c1ccccc1)N/N=C/c1ccc([N+](=O)[O-])cc1	0.0	/	-7.9%	18.2	/	/	/	-0.1	0.2	-3.0
COc1ccc2c(c1)C(C)CC(C)(C)N2C(=O)Nc1ccccc1 (centres undefined)	-1.1	1.1	2.0%	16.9	4.5	12.1	-1.5	-4.1	-18.0	-3.3
COc1cc(C)ccc1OCC(=O)OCC(=O)NCC1CCCCC1	-1.2	-1.3	/	/	4.9	6.8	-2.2	/	-9.2	/
O=C(c1sc2ccccc2c1Cl)N1CCN(c2ccccc2F)CC1	-0.3	/	/	-16.1	/	/	/	5.5	-0.5	15.0
COc1ccc(CCNC(=O)CSc2ccc3ccccc3c2)cc1OC	-0.5	-4.0	/	5.7	-9.7	-5.7	-5.8	2.6	-9.0	15.3
O=C1C(Cl)=C(NCC2CCCO2)C(=O)N1C1CCCCC1 (centres undefined)	0.3	/	7.3%	-4.8	/	/	/	-1.1	-10.6	0.3

Part of the list above in order of formula weight, highest first:
SMILES	A1 inh	MLL AF4-AF9 inh	Vif TR-FRET	T cruzi inh	Ecoli rRNA inh	Ecoli rRNA inh OD600	Ecoli rRNA inh RFP	RanGTP-Imp inh	Beta cell apopt	Calb FLC
COc1ccc(CCNC(=O)CSc2ccc3ccccc3c2)cc1OC	-0.5	-4.0	/	5.7	-9.7	-5.7	-5.8	2.6	-9.0	15.3
COc1cc(C2NC(=O)NC(C)=C2C(=O)OC2CCCC(C)C2)ccc1O (centres undefined)	0.3	/	0.7%	-0.5	/	/	/	?	-0.7	10.5
O=C1C(Cl)=C(NCC2CCCO2)C(=O)N1C1CCCCC1 (centres undefined)	0.3	/	7.3%	-4.8	/	/	/	-1.1	-10.6	0.3
O=c1cc(CN2CCOCC2)c2c(ccc3ccccc32)o1	-0.1	-15.5	4.3%	-11.9	/	/	/	/	4.6	9.4

Not all compounds are listed. The share of hits here may be higher or lower than overall.
